Ecoli rRNA inh – selective bacterial rRNA inhibition in E. coli; actives 1.6% (n = 350,000); GFP signal change (wild-type ribosome), % (concentration not given with the values); E. coli WT GFP vs humanized-ribosome RFP mutants, fluorescence, 24 h; stronger effect = lower value; DMSO median 0, no signal -100;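 active = significant combined selectivity score with lowered wild-type GFP, culture density cut under 30%, mutant RFP and density less affected; inactive = any of these conditions unmet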; also: one replicate is shown; some compounds called inactive have numbers as strong as hits
FGF22 binding – shifts melting point of recombinant human FGF22; actives 1.5% (n = 340,000); calls only at 9.99 µM; AID 651658; recombinant FGF22 thermal shift, SYPRO orange fluorescence; percent of sucrose octasulfate shift, DMSO zero; Q9HCT0;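 active = melting point raised past a set limit in the mean and every replicate; three in four hits are not shown here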
Target sequence (Q9HCT0 whole entry, looked up): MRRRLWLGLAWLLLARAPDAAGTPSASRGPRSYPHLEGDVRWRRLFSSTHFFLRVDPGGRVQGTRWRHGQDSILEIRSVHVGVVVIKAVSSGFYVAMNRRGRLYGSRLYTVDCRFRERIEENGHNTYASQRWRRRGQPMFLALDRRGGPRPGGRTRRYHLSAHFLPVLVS
Ecoli rRNA inh OD600 – further read-out of Ecoli rRNA inh, marked with its call; OD600 change, %; measured here: OD600 growth;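 optical density of the mix in the first replicate; 0 = DMSO median and -100 = no signal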
Ecoli rRNA inh RFP – further read-out of Ecoli rRNA inh, marked with its call; RFP signal change, %; measured here: RFP humanized mutant strains;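 first replicate; 0 = DMSO median and -100 = no signal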
* = called active by the depositor; i = inactive; + = active, no number.

SMILES	Ecoli rRNA inh	Ecoli rRNA inh OD600	Ecoli rRNA inh RFP	FGF22 binding
C[C@@H](NC(=O)C[C@H]1CC[C@H](NC(=O)C2CCC2)[C@H](CO)O1)c1ccccc1	-1	0	-3.2	i
CO[C@H]1CN(C)C(=O)c2cc(NC(C)=O)ccc2OC[C@@H](C)N(C(=O)C2CC2)C[C@H]1C	-3	-11	1.2	i
C[C@@H]1CN([C@@H](C)CO)C(=O)c2cc(NC(=O)Cc3cn(C)c4ccccc34)ccc2O[C@@H]1CN(C)Cc1ccc(Cl)c(Cl)c1	3	2	-0.6	i
C[C@@H]1CN([C@@H](C)CO)C(=O)c2cc(NC(=O)Nc3cccc4ccccc34)ccc2O[C@@H](C)CCCCO[C@H]1CN(C)Cc1ccc(C(F)(F)F)cc1	0	-4	-3.0	i
COc1ccc(CN(C)C[C@H]2Oc3c(NS(=O)(=O)c4cccs4)cccc3C(=O)N([C@H](C)CO)C[C@H]2C)cc1	-1	0	-1.7	i
C[C@H]1CN([C@@H](C)CO)C(=O)c2cccc(NC(=O)Nc3ccc4c(c3)OCO4)c2O[C@H]1CN(C)C(=O)Nc1ccc(C(F)(F)F)cc1	-13	-16	-3.2	i
O=C(C[C@H]1C[C@@H]2c3cc(NC(=O)NC4CCCC4)ccc3O[C@@H]2[C@H](CO)O1)NCc1ccc(Oc2ccccc2)cc1	-1	9	-0.5	i
C[C@H](CO)N1C[C@H](C)[C@@H](CN(C)C(=O)c2ccccn2)Oc2ncc(C#Cc3ccccn3)cc2C1=O	4	-4	-1.1	i
C[C@H]1CN([C@@H](C)CO)C(=O)c2cccc(NC(=O)C3CCCCC3)c2O[C@H]1CN(C)C(=O)Nc1cccc2ccccc12	0	1	-3.0	i
O=C(C[C@@H]1CC[C@@H]2[C@H](COC[C@@H](O)CN2C(=O)c2ccccc2F)O1)NCc1ccc(-c2ccccc2)cc1	-8	-19	24	i
CCCC(=O)Nc1ccc2c(c1)C(=O)N(C)[C@H]1CC[C@H](CC(=O)NCc3ccccc3Cl)O[C@H]1CO2	0	-2	-1.0	i
C[C@H]1CN([C@@H](C)CO)C(=O)c2cc(NC(=O)Nc3ccc(C(F)(F)F)cc3)ccc2O[C@@H]1CN(C)C(=O)NC1CCCCC1	0	3	0.2	i
COCC(=O)N[C@H]1C=C[C@H](CC(=O)N2CCCCC2)O[C@@H]1CO	5	6	-1.0	i
CCCNC(=O)N1C[C@@H](C)[C@@H](OC)CN(C)C(=O)c2ccc(NC(=O)C3CCC3)cc2OC[C@@H]1C	0	-1	0.4	i
COCCNC(=O)C[C@H]1C=C[C@H](NS(=O)(=O)c2ccc(C)cc2)[C@H](CO)O1	1	5	-2.3	i
Cc1noc(C)c1S(=O)(=O)N(C)C[C@H]1OCCCC[C@H](C)Oc2ccc(NC(=O)Nc3ccc(C(F)(F)F)cc3)cc2C(=O)N([C@H](C)CO)C[C@H]1C	1	-11	9.3	i
COc1ccc(NC(=O)N(C)C[C@@H]2OCCCC[C@@H](C)Oc3ccc(NS(=O)(=O)c4cccs4)cc3C(=O)N([C@H](C)CO)C[C@H]2C)cc1	-6	-8	2.0	i
C[C@@H]1CN([C@H](C)CO)C(=O)c2cc(NS(=O)(=O)c3cccs3)ccc2O[C@@H]1CN(C)Cc1ccc(C(=O)Nc2ccccc2N)cc1	-7	0	-0.1	i
O=C(NCC[C@H]1CC[C@@H](NS(=O)(=O)c2ccccc2)[C@H](CO)O1)c1cc(Cl)cc(Cl)c1	-3	-5	0.5	i
C[C@@H]1CN([C@@H](C)CO)C(=O)c2cccc(NC(=O)c3cnccn3)c2O[C@@H]1CN(C)Cc1ccncc1	2	-4	0.0	i
C[C@@H]1CN([C@H](C)CO)C(=O)c2cc(Br)cnc2O[C@H]1CN(C)C(=O)C1CCCCC1	2	-2	-7.0	i
CCCN(C)C[C@H]1Oc2cc(C#Cc3cccc(F)c3)ccc2S(=O)(=O)N([C@@H](C)CO)C[C@H]1C	-2	-4	3.6	i
O=C(C[C@H]1CC[C@@H](NC(=O)CC2CC2)[C@H](CO)O1)NCc1ccc(-c2ccccc2)cc1	-6	-2	1.8	i
CC=Cc1ccc2n(c1=O)C[C@@H]1[C@@H](CO)[C@H](C(=O)N(C)C)N(CC3CCOCC3)[C@H]21 (mixture of isomers)	2	-6	0.9	i
CO[C@@H]1CN(C)C(=O)c2ccc(NC(=O)C3CC3)cc2OC[C@@H](C)N(C(=O)c2cnccn2)C[C@H]1C	5	4	-0.3	i
C/C=C/c1ccc([C@@H]2[C@H](CO)N3CCCCN(S(=O)(=O)c4cccs4)C[C@@H]23)cc1	-58	-71	-10	i
COc1ccc2c3c([nH]c2c1)[C@@H](CO)N(C(=O)Nc1ccccc1F)CC31CN(C(C)=O)C1	0	6	-0.1	i
COCCN(C[C@@H]1N[C@@H](CO)[C@H]1c1ccc(-c2ccccc2)cc1)C(C)=O	0	-4	0.5	i
O=C(C[C@@H]1CC[C@H]2[C@@H](COC[C@H](O)CN2C(=O)c2cnccn2)O1)NCc1ccc(F)cc1	3	10	-3.8	i
Cc1ccc(S(=O)(=O)Nc2cccc3c2O[C@@H](CN(C)Cc2ccc(C(=O)O)cc2)[C@@H](C)CN([C@H](C)CO)C3=O)cc1	3	2	0.8	i
CCC(=O)N1CC2(CCN(Cc3ccccc3Cl)CC2)c2c([nH]c3cc(OC)ccc23)[C@@H]1CO	-6	-7	-3.5	i
CO[C@@H]1CN(C)C(=O)c2ccc(NC(=O)C3CC3)cc2OC[C@@H](C)NC[C@H]1C	1	4	-0.4	i
CCNC(=O)C[C@@H]1CC[C@H]2[C@@H](COC[C@H](O)CN2C(=O)c2cccnc2)O1	-2	-5	25	i
CO[C@H]1CN(C)C(=O)c2cc(NC(C)=O)ccc2OC[C@H](C)N(C(=O)c2cnccn2)C[C@H]1C	2	4	-2.0	i
COc1ccc(S(=O)(=O)N[C@H]2CC[C@H](CC(=O)N3CCc4ccccc4C3)O[C@@H]2CO)cc1	2	-3	-0.5	+
COc1ccc(S(=O)(=O)N2CC[C@@H]3[C@H](CO)Nc4ccc(-c5cccc(C#N)c5)cc4[C@@H]32)cc1	-7	5	4.3	i
Cc1noc(C)c1NC(=O)Nc1ccc2c(c1)C(=O)N([C@H](C)CO)C[C@@H](C)[C@@H](CN(C)S(=O)(=O)c1ccc(Cl)cc1)O2	1	9	1.8	i
C[C@@H]1CN([C@@H](C)CO)C(=O)c2cc(NC(=O)Nc3ccc(C(F)(F)F)cc3)ccc2O[C@H]1CN(C)C(=O)NC1CCCCC1	2	11	-1.4	i
C[C@H]1CN([C@@H](C)CO)C(=O)Cc2cc(NC(=O)Cc3ccccc3)ccc2O[C@@H]1CN(C)Cc1ccncc1	4	8	1.1	i
C/C=C/c1ccc([C@@H]2[C@H](CO)N(C(C)=O)C23CN(S(C)(=O)=O)C3)cc1	6	7	-4.8	i
C[C@@H]1CN([C@@H](C)CO)C(=O)c2cc(C3=CCCC3)cnc2O[C@@H]1CN(C)C(=O)CN(C)C	4	2	-0.7	i
O=C(C[C@H]1C=C[C@@H](NC(=O)c2cccnc2)[C@@H](CO)O1)NCCN1CCCCC1	3	3	1.1	i
COCC#Cc1ccc2c(c1)O[C@H](CN(C)S(=O)(=O)c1ccc(F)cc1)[C@@H](C)CN([C@H](C)CO)S2(=O)=O	-4	-15	0.5	i
COc1ccc(NC(=O)N(C)C[C@H]2Oc3ccc(NC(=O)Nc4ccc(C(F)(F)F)cc4)cc3CC(=O)N([C@H](C)CO)C[C@H]2C)cc1	-3	-8	0.7	i
C[C@@H]1CCCCO[C@@H](CN(C)C(=O)C2CCCCC2)[C@@H](C)CN([C@H](C)CO)C(=O)c2cc(NC(=O)Nc3cccc4ccccc34)ccc2O1	2	0	-1.1	i
COc1ccccc1-c1cnc2c(c1)C(=O)N([C@H](C)CO)C[C@H](C)[C@@H](CN(C)C(=O)c1ccncc1)O2	-1	-5	-1.9	i
CCNC(=O)C[C@@H]1CC[C@@H]2[C@H](COC[C@H](O)CN2Cc2ccccc2F)O1	-1	-2	-5.5	i
CN(C)C(=O)C[C@@H]1CC[C@@H](NC(=O)C2CCOCC2)[C@H](CO)O1	7	5	-1.3	i
C[C@H](CO)N1C[C@H](C)[C@@H](CN(C)Cc2ccc(C(F)(F)F)cc2)Oc2ccc(NS(C)(=O)=O)cc2C1=O	-1	-3	0.8	i
Cc1ccc(S(=O)(=O)NCC[C@@H]2CC[C@H](NC(=O)Nc3cccc(F)c3)[C@@H](CO)O2)cc1	-2	-8	0.6	i
COc1cccc(S(=O)(=O)N2C[C@@H](O)COC[C@H]3O[C@@H](CC(=O)N4CCN(c5ccccc5)CC4)CC[C@@H]32)c1	-2	2	2.8	i
C[C@H](CO)N1C[C@H](C)[C@H](CN(C)Cc2ccc(-c3ccccc3)cc2)Oc2ccc(NC(=O)Cc3cn(C)c4ccccc34)cc2C1=O	2	1	17	i
COc1ccc(NC(=O)Nc2ccc3c(c2)CC(=O)N([C@H](C)CO)C[C@@H](C)[C@H](CN(C)CC2CC2)O3)cc1	6	-3	-0.9	i
C[C@@H]1CCCCO[C@H](CN(C)C(=O)C2CCCCC2)[C@@H](C)CN([C@@H](C)CO)C(=O)c2cc(NC(=O)CCCN(C)C)ccc2O1	-3	-1	-1.8	i
O=C(C[C@H]1CC[C@H]2[C@@H](COC[C@@H](O)CN2C(=O)Nc2ccc(Cl)cc2)O1)NCCc1ccncc1	-31	-29	-8.0	i
C[C@H](NC(=O)C[C@H]1C[C@@H]2c3cc(NC(=O)C4CCC4)ccc3O[C@@H]2[C@H](CO)O1)c1ccccc1	1	-10	-2.7	i
C[C@@H]1CN([C@H](C)CO)C(=O)c2cc(NS(=O)(=O)c3cccs3)ccc2O[C@@H](C)CCCCO[C@H]1CN(C)S(=O)(=O)c1cccs1	0	2	-0.5	i
Cc1noc(C)c1NC(=O)N(C)C[C@@H]1Oc2ccc(NC(=O)NC3CCCCC3)cc2CC(=O)N([C@H](C)CO)C[C@@H]1C	1	2	-2.1	i
C[C@H]1[C@H](c2ccccc2)Oc2cccc(NCCc3ccccc3)c2S(=O)(=O)N1Cc1ccc(F)cc1	8	7	5.0	i
C[C@H]1CN([C@@H](C)CO)C(=O)c2cc(-c3cccc(C(=O)N(C)C)c3)cnc2O[C@@H]1CN(C)C(=O)Cc1ccccn1	0	10	-2.8	i
(list continues)
SMILES	Ecoli rRNA inh	Ecoli rRNA inh OD600	Ecoli rRNA inh RFP	FGF22 binding
COc1ccccc1S(=O)(=O)N(C)C[C@H]1Oc2ncc(-c3ccc(C)cc3)cc2C(=O)N([C@@H](C)CO)C[C@H]1C	1	-9	5.2	i
CS(=O)(=O)N1[C@H](C#N)[C@H](c2ccc(-c3ccccc3F)cc2)[C@@H]1CO	0	-9	2.1	i
CS(=O)(=O)Nc1ccc2c(c1)[C@@H]1C[C@H](CC(=O)NCc3cccnc3)O[C@@H](CO)[C@@H]1O2	2	7	-3.3	i
COc1ccc(S(=O)(=O)N[C@@H]2CC[C@H](CCNC(=O)Cc3ccccn3)O[C@@H]2CO)cc1	1	-1	1.5	i
C[C@@H]1CCCCO[C@@H](CN(C)S(=O)(=O)c2cccs2)[C@@H](C)CN([C@H](C)CO)C(=O)c2cc(NS(C)(=O)=O)ccc2O1	2	3	0.3	i
CCC(=O)N1CC[C@H]2[C@H](CO)Nc3ccc(-c4ccccc4)cc3[C@H]21	5	6	0.8	i

A section from further up:
SMILES	Ecoli rRNA inh	Ecoli rRNA inh OD600	Ecoli rRNA inh RFP	FGF22 binding
C[C@@H]1CN([C@@H](C)CO)C(=O)c2cc(NC(=O)Cc3cn(C)c4ccccc34)ccc2O[C@@H]1CN(C)Cc1ccc(Cl)c(Cl)c1	3	2	-0.6	i
C[C@@H]1CN([C@@H](C)CO)C(=O)c2cc(NC(=O)Nc3cccc4ccccc34)ccc2O[C@@H](C)CCCCO[C@H]1CN(C)Cc1ccc(C(F)(F)F)cc1	0	-4	-3.0	i
COc1ccc(CN(C)C[C@H]2Oc3c(NS(=O)(=O)c4cccs4)cccc3C(=O)N([C@H](C)CO)C[C@H]2C)cc1	-1	0	-1.7	i
C[C@H]1CN([C@@H](C)CO)C(=O)c2cccc(NC(=O)Nc3ccc4c(c3)OCO4)c2O[C@H]1CN(C)C(=O)Nc1ccc(C(F)(F)F)cc1	-13	-16	-3.2	i
O=C(C[C@H]1C[C@@H]2c3cc(NC(=O)NC4CCCC4)ccc3O[C@@H]2[C@H](CO)O1)NCc1ccc(Oc2ccccc2)cc1	-1	9	-0.5	i
C[C@H](CO)N1C[C@H](C)[C@@H](CN(C)C(=O)c2ccccn2)Oc2ncc(C#Cc3ccccn3)cc2C1=O	4	-4	-1.1	i
C[C@H]1CN([C@@H](C)CO)C(=O)c2cccc(NC(=O)C3CCCCC3)c2O[C@H]1CN(C)C(=O)Nc1cccc2ccccc12	0	1	-3.0	i
O=C(C[C@@H]1CC[C@@H]2[C@H](COC[C@@H](O)CN2C(=O)c2ccccc2F)O1)NCc1ccc(-c2ccccc2)cc1	-8	-19	24	i
CCCC(=O)Nc1ccc2c(c1)C(=O)N(C)[C@H]1CC[C@H](CC(=O)NCc3ccccc3Cl)O[C@H]1CO2	0	-2	-1.0	i
C[C@H]1CN([C@@H](C)CO)C(=O)c2cc(NC(=O)Nc3ccc(C(F)(F)F)cc3)ccc2O[C@@H]1CN(C)C(=O)NC1CCCCC1	0	3	0.2	i

High-throughput results from PubChem BioAssay.

Only part of the results is shown. The share of hits here may be higher or lower than overall.
